Assay outcomes from PubChem BioAssay.
VACV mCherry inh: inhibitors of vaccinia virus infection (mCherry reporter signal); hit rate 0.63% among 310,000; AID 720579; Potency, µM (titrated, usually from 36.5 µM), without a hit: top-dose activity change, negative = inhibition, most hits filed as inhibitors; Vaccinia virus mCherry reporter infection, fluorescence; about a quarter of the inactives have no number; active = well fitted inhibition curve with a large enough effect; inconclusive = small, poorly fitted or top-dose-only effect; inactive = no such curve, though single readings can be large or run the other way; tested in A549 cells; further: nearly all actives have a fitted effect of over 35% in size; inactives centre near -10
Vaccinia Venus: inhibitors of vaccinia virus (Venus reporter); Vaccinia virus Venus reporter expression, fluorescence; AID 720580; Potency, µM (titrated, usually from 36.5 µM), for the others: at the highest dose activity change, negative = inhibition, hits mostly inhibitors; hit rate 0.46% among 330,000; active means well fitted inhibition curve with a large enough effect; inconclusive means small, poorly fitted or top-dose-only effect; inactive means no such curve, though single readings can be large or run the other way; tested in A549 cells; further: nearly all actives have a fitted effect of over 30% in size; inactives centre near -10
* hit, by the source's call; i = inactive; ? = inconclusive; / = not tested or not shown; & = joins results of further samples; [ ] = dose if it differs, or a comment. On the % scale 0 is the no-effect control and ±100 the full control effect; potency means the concentration at half of the fitted maximal effect.

Every second line gives: VACV mCherry inh	Vaccinia Venus
- Cc1cccc(N(CC(=O)N=Nc2c(O)[nH]c3ccccc23)S(C)(=O)=O)c1C
 : -23%	-19%
- O=C(NCCc1ccc(Cl)cc1)C1CC(=O)N(C2CCCCC2)C1 (stereo not drawn)
 : -14%	4%
- COc1ccc(C(=O)NCC(c2ccco2)S(=O)(=O)c2cccs2)cc1OC (stereo not drawn)
 : -12%	-3%
- CC(=O)N1CCCc2cc(S(=O)(=O)N3CCCC(C(=O)N4CCN(c5ccccc5)CC4)C3)ccc21 (stereo not drawn)
 : ?	?
- COCCCN1C(=O)c2ccc(C(=O)Nc3ccc(OC)cc3)cc2C1=O
 : -3%	-8%
- O=C(Nc1ccccc1C(=O)N1CCCCCC1)c1ccccc1Cl
 : -19%	-11%
- COc1ccc(C(C)=O)cc1COC(=O)Cc1cc(OC)c(OC)c(OC)c1
 : i	0%
- CCOc1ccc2c(c1)c(=O)c(C(=O)c1ccc(C)cc1)cn2Cc1ccccc1OC
 : ?	?
- Cc1sc2ncnc(N3CCN(C(=O)c4ccco4)CC3)c2c1C
 : -5%	-20%
- CCOC(=O)C(=CNc1ncccc1C)C(=O)OCC
 : i	-11%
- O=C1CC(=O)N(c2ccccc2)N1c1ccccc1
 : -3%	4%
- C=CCn1c(-c2cccc(S(=O)(=O)N(CC)CC)c2)n[nH]c1=S
 : -19%	-5%
- CC(C)CN(C(=O)CSc1nc2ccccc2c(=O)[nH]1)c1c(N)n(CC(C)C)c(=O)[nH]c1=O
 : -7%	-15%
- Cc1cc(=O)[nH]c(SCC(=O)c2ccc(F)c(C)c2)n1
 : -14%	2%
- O=C(NCc1ccccc1Cl)C1CCCN(S(=O)(=O)c2cccc3nonc23)C1 (stereo not drawn)
 : -13%	-8%

The list continues.
Every second line gives: VACV mCherry inh	Vaccinia Venus
- COc1ccc2[nH]c(C)c(CCNc3ccc(C(F)(F)F)cc3[N+](=O)[O-])c2c1
 : -15%	-14%
- CC(c1ccccc1)n1c(-c2ccc(C(C)(C)C)cc2)n[nH]c1=S (stereo not drawn)
 : -3%	-7%
- COc1ccc(N2CCN(c3oc(-c4ccccc4OC)nc3C#N)CC2)cc1
 : -14%	-6%
- O=C(CSc1nnnn1-c1cccc(F)c1)Nc1nc2ccccc2s1
 : -14%	-12%
- O=C(NCc1ccco1)C1CCC(N2C(=O)c3ccccc3C2=O)CC1 (stereo not drawn)
 : -6%	11%
- CC(=O)NS(=O)(=O)c1ccc(NS(=O)(=O)c2ccc(F)cc2)cc1
 : /	-1%
- CC(=O)Nc1ccc(S(=O)(=O)Nc2nc3ccccc3nc2-n2ccc(=NC(=O)c3ccccc3)cc2)cc1
 : 0%	-12%
- COc1ccc(S(=O)(=O)NCCN2CCOCC2)cc1[N+](=O)[O-]
 : -11%	15%
- Cc1nn(-c2ccccc2Cl)c(Cl)c1/C=N/Nc1cccc(C(=O)O)c1
 : -3%	-19%
- COc1cccc(NC(=O)CSc2nnc(NC(=O)c3ccco3)s2)c1
 : -17%	-11%
- Cc1cc(C)c2c(N)c3cccc(C)c3nc2n1
 : 10µM*	10µM*
- COc1ccc(NC(=O)C(c2ccc(OC)cc2)N(C)C(=O)CNC(C)=O)cc1 (stereo not drawn)
 : -13%	-22%
- Cc1nc2nc(NC(=O)c3ccc(C(C)(C)C)cc3)[nH]n2c(=O)c1Cc1ccccc1
 : -7%	-15%
- Cc1ccc(CNC(=O)CN(C(=O)C2(C)CC(=O)N=C3C=CC=CN32)c2ccccc2)cc1 (stereo not drawn)
 : 2%	3%
- N/C(=N/O)C(c1ccccc1)c1ccccc1
 : i	-12%

The last two compounds of the section before lead into the next.
Every second line gives: VACV mCherry inh	Vaccinia Venus
- Cc1ccc(CNC(=O)CN(C(=O)C2(C)CC(=O)N=C3C=CC=CN32)c2ccccc2)cc1 (stereo not drawn)
 : 2%	3%
- N/C(=N/O)C(c1ccccc1)c1ccccc1
 : i	-12%
- Cc1cccc2nc3c(nc12)CCCC3
 : 3%	-6%
- CCOC1=C2CN(S(=O)(=O)c3ccc(C)cc3)[C@H](c3ccccc3)C[C@@H]2N(S(C)(=O)=O)[C@H](c2ccccc2)C1
 : i	5%
- O=S(=O)(NCc1csc(-c2ccccc2)n1)c1ccc(Cl)s1
 : ?	-12%
- O=C(NCCS(=O)(=O)N1CCN(c2ccccc2)CC1)C12CC3CC(CC(C3)C1)C2
 : -20%	?
- CCOC(=O)N1CCN(C(=O)CN(c2ccc(C)cc2)S(=O)(=O)c2c(C)noc2C)CC1
 : i	-12%
- O=C(NCc1ccccc1Cl)c1ccc(CS(=O)(=O)c2ccccc2)o1
 : -6%	-10%
- Cc1nn(-c2ccc([N+](=O)[O-])cc2)c(N)c1-c1ccccc1
 : -28%	-14%
- COc1cc(/C=C(\C#N)c2ccccn2)ccc1OCC(=O)Nc1c(Cl)cccc1Cl
 : -15%	-18%
- COc1ccc(CC(=O)Nc2ccc(NC(=O)c3ccc(Br)cc3)cc2)cc1OC
 : -13%	-2%
- Cc1nnc(Sc2nc3c(c(=O)[nH]c(=O)n3C)n2CCc2ccccc2)s1
 : 10%	-5%
- O=C(COC(=O)c1ccccc1OCc1ccc(Cl)cc1)NCC1CCCO1 (stereo not drawn)
 : i	-7%
- COc1ccc(NC(=O)CN2c3cccc4cccc(c34)S2(=O)=O)cc1
 : i	-4%
- COCc1cnc(C)nc1N
 : i	-1%
- COc1ccc(NC(=O)CN(C)C(=O)/C=C/c2cn(-c3ccccc3)nc2-c2ccc(C)cc2)cc1
 : -19%	-29%
- O=C(NN/C(=N/S(=O)(=O)c1ccc(Cl)cc1)c1ccccc1)c1cccc(Cl)c1
 : 4%	2%

(continued)
Every second line gives: VACV mCherry inh	Vaccinia Venus
- Cc1cc(Nc2cccc(C(F)(F)F)c2)nc2ccc(NC(=O)c3cncc(Br)c3)cc12
 : -18%[7.34 µM]	-16%[7.34 µM]
- COc1ccc(NC(=O)CSc2nc3nc(C)cc(C)n3n2)cc1
 : 8%&-6%	-13%&-11%
- COc1cc(C(=O)NCCCN(C)C)ccc1OCC(=O)Nc1cccc(C(F)(F)F)c1
 : i	-21%
- O=C(CSc1ccc2nnc(CCNC(=O)c3ccccc3)n2n1)NCc1ccc(F)cc1
 : -17%	-16%
- CCC(Cc1ccccc1)NC(=O)C1CC1 (stereo not drawn)
 : i	-2%
- CC(C)(C)c1ccc(C(=O)NCCNC(=O)c2ccco2)cc1
 : 5%	1%
- Cc1ccc(NC(=O)Nc2ccc(Cl)cn2)cc1
 : -13%	-23%
- CCN(/C(N)=N/c1nc(C)cc(C)n1)c1ccccc1
 : -7%	-21%
- CC(Nc1nc(-c2ccccc2)nc2ccccc12)c1ccccc1 (stereo not drawn)
 : 0%	?
- CCC1CCCCN1C(=O)c1cc(S(=O)(=O)N2CCOCC2)ccc1C (stereo not drawn)
 : i	-7%
- CCOc1ccccc1CN1CCNC(=O)C1CC(=O)NC1CCCCCC1 (stereo not drawn)
 : i[7.34 µM]	-17%[7.34 µM]
- Cc1cc(N2CCC(C(=O)N(CC(C)C)CC(C)C)CC2)n2nc(C)c(-c3ccc(Cl)cc3)c2n1
 : -9%	-14%
- CCC(N=c1cc(-c2ccc(OC)cc2)oc2ccc(C)cc12)C(=O)O (stereo not drawn)
 : -7%	-10%
- O=C(C[C@H]1C/C=C\CC[C@@H](Cc2ccc(F)cc2)C(=O)OCCNC1=O)NCCO
 : -3%	-1%
- CCOc1ccc(-c2nc(SCC(=O)Nc3ccc4c(c3)OCO4)c(-c3ccc(F)cc3)[nH]2)cc1
 : ?	?

Other entries follow:
Every second line gives: VACV mCherry inh	Vaccinia Venus
- CC(C)c1ccc(OCC(=O)Nc2ccc(S(=O)(=O)Nc3ncccn3)cc2)cc1
 : -13%	-5%
- COc1ccccc1NS(=O)(=O)c1cccc(C(=O)NCC2(N(C)C)CCCCC2)c1
 : -10%	-11%
- CC(C)c1ccccc1NC(=O)COC(=O)c1cc(=O)[nH]c(=O)[nH]1
 : -2%	9%
- Cc1ccc2oc(=O)c3cnn(CC(=O)N(CCN(C)C)Cc4ccco4)c3c2c1
 : i	-3%
- O=C(NCC(c1ccc2c(c1)OCO2)N1CCOCC1)c1cccc(Cl)c1 (stereo not drawn)
 : -13%	4%
- O=C(CCc1ccccc1)Nc1cc2c(cc1C(=O)O)OCCCO2
 : -3%	-4%
- O=C(Nc1nnc(CCN2CCCCC2)s1)c1ccc(Br)cc1
 : 5%	-3%
- COc1ccc(NC(=O)C2CCCN(S(=O)(=O)c3cccc4cccnc34)C2)cc1 (stereo not drawn)
 : -15%	-17%
- Cc1ccc(OC(=S)Nc2ccc(O)cc2)cc1
 : -21%	-12%
- Cc1ccc(Nc2c(-c3cccnc3)nc3ccc(Cl)cn23)cc1
 : i	-14%
- CC(C)CN(C(=O)CSc1ccc2c(c1)OCCO2)c1c(N)n(CC(C)C)c(=O)[nH]c1=O
 : i	-11%
- Cc1[nH]c(=O)[nH]c(=O)c1NC(=O)c1sc2nc3c(C)cccc3cc2c1N
 : -12%	-7%
- Cc1nc2ccc(NC(=O)COc3ccccc3[N+](=O)[O-])cc2s1
 : i	-3%
- CCOc1cc(CNCc2ccncc2)cc(Cl)c1OC
 : -14%	-27%
- COc1cccc(C(=O)Nc2ccc(-c3cn4cccnc4n3)cc2)c1OC
 : -21%	-15%

Next part.
Every second line gives: VACV mCherry inh	Vaccinia Venus
- CCC(=O)N1c2ccc(S(=O)(=O)N3CCC(C)CC3)cc2CC1C (stereo not drawn)
 : 3%	-1%
- COc1ccc(C(=O)N(CC(=O)Nc2sc(C)c(C)c2C(N)=O)C2CCCC2)cc1
 : -22%	-17%
- COC(=O)CCC(=O)N(CCN(C(=O)CCC(=O)OC)c1ccccc1)c1ccccc1
 : -1%	-4%
- N#CCSc1ncccc1-c1nc2ccccc2[nH]1
 : /	-8%
- Brc1cccc(OCCCN2CCCCCC2)c1
 : -15%	-8%
- CCNC(=O)NC(=O)COC(=O)CCCc1nc2ccccc2s1
 : i	-14%
- CCN(CC(=O)NC(=O)Nc1ccccc1F)Cc1ccccc1
 : -29%	-12%
- CC(C)Sc1nc(N)nc(-c2cccs2)c1C#N
 : /	?
- COC(=O)CCN(c1ccccc1)C(CNS(=O)(=O)c1ccccc1)c1ccccc1 (stereo not drawn)
 : -15%	-7%
- COC(=O)Cn1c(CN2CCC(Cc3ccccc3)CC2)nc2c1c(=O)n(C)c(=O)n2C
 : i	-8%
- O=C(NCCNS(=O)(=O)c1ccc(Cl)cc1)c1cc(OCC(F)(F)F)ccc1OCC(F)(F)F
 : -18%	-8%
- CC1Cc2cc(S(=O)(=O)CCC(=O)NC3CCCCC3)ccc2N1C(=O)C1CC1 (stereo not drawn)
 : -13%	-2%
- CN(C)S(=O)(=O)c1ccc(C(=O)OCCN=C2NS(=O)(=O)c3ccccc32)cc1
 : i	-7%
- CC(=O)Nc1ccc(OCC(O)Cn2c(C(C)C)nc3ccccc32)cc1 (stereo not drawn)
 : -5%	3%
- Cc1ccc(NC(=O)CN2C(=O)S/C(=C\c3cc(C)n(-c4ccc(C(=O)O)cc4)c3C)C2=O)cc1
 : i	-6%

Next section
Every second line gives: VACV mCherry inh	Vaccinia Venus
- Cc1nc2ccc(NC(=O)c3cnc(Cl)c(Cl)c3)cc2s1
 : i	-11%
- CS(=O)(=O)c1ccc(C(=O)N(Cc2ccccc2)c2ccccc2)cc1
 : -15%	-7%
- CC1(C)CC(CCNC(=O)c2ccc(-n3cnnn3)cc2)CC(C)(C)N1
 : /	-19%
- CC(NC(=O)NC(=O)c1ccc(Cl)cc1Cl)C1CC1 (stereo not drawn)
 : -13%	-12%
- CCn1cc(CNC(=O)c2ccc(OC3CCN(Cc4ccccn4)CC3)cc2)cn1
 : ?	-13%
- NC(c1ccccc1)c1cccs1 (stereo not drawn)
 : 34%[activator]	-2%
- CC1CCCCN1C(=O)Cn1cnc2c1c(=O)n(C)c(=O)n2C (stereo not drawn)
 : -2%	-5%
- COc1ccc(C(=O)NCC(C)(C)N2CCOCC2)cc1S(=O)(=O)N1CCCC1
 : i	1%
- CCN(CC)C(=O)/C(=C/c1cccc([N+](=O)[O-])c1)NC(=O)c1ccco1
 : i	-23%
- COc1ccc([C@H]2CN(c3ccc(OC)cc3)C(=O)[C@@H]2CC(=O)Nc2ccccc2)cc1
 : -1%	-5%
- CC(=O)Nc1ccc(S(=O)(=O)N2Cc3ccccc3-n3nncc3C2)cc1
 : i	-13%
- COc1c(C(=O)NCCSC(C)(C)C)ccc2ccccc12
 : -17%	-11%
- Cc1ccc(NC(=O)C2CCCN2C(=O)Oc2ccccc2)cc1C (stereo not drawn)
 : -12%	-9%
- O=C(O)Cn1cc2c(n1)CCCC2
 : /	8%
- COc1cc2c(cc1NC(=O)COc1ccc(Br)cc1C)oc1ccccc12
 : ?	-22%

Single records (already shown). Order of screens: VACV mCherry inh	Vaccinia Venus
CC(NC(=O)NC(=O)c1ccc(Cl)cc1Cl)C1CC1 (stereo not drawn) reads -13%	-12%
CCn1cc(CNC(=O)c2ccc(OC3CCN(Cc4ccccn4)CC3)cc2)cn1 reads ?	-13%
COc1c(C(=O)NCCSC(C)(C)C)ccc2ccccc12 reads -17%	-11%
NC(c1ccccc1)c1cccs1 (stereo not drawn) reads 34%[activator]	-2%

Next part:
Every second line gives: VACV mCherry inh	Vaccinia Venus
- O=C1CC(N2CCC(c3nc4ccccc4[nH]3)CC2)C(=O)N1c1cccc(F)c1 (stereo not drawn)
 : -8%	-10%
- O=C(CSc1nnc(COc2ccc(Cl)cc2)o1)N1CCCC1
 : i	-12%
- C[C@H]1CN([C@@H](C)CO)S(=O)(=O)c2ccc(Br)cc2O[C@@H]1CN(C)S(=O)(=O)c1ccccc1
 : -4%	-18%
- O=C(CC1C(=O)NCCN1Cc1ccc(F)c(F)c1)NCCCn1ccnc1 (stereo not drawn)
 : i	-2%
